Source: PubChem
T cruzi inh: blocks replication of Trypanosoma cruzi; T. cruzi beta-gal in NIH3T3, luminescence, 90 h; inhibition, % (test concentration not listed); actives 1.4% (n = 300,000); AID 1885;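 active = mean inhibition across valid replicates above about 55%, limit read from the data; inconclusive = mean below that limit but half or more replicates reach it; inactive = mean below it, under half of replicates reach it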;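 note: signal also drops with host cell toxicity which is not excluded here; 0% = plate median of DMSO wells and 100% = zero luminescence signal; higher percent means less beta-gal luminescence so fewer parasites; stock transfer was 50 nL into about 50 µL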
FGF22 binding: FGF22 (human) thermal shift binding; Q9HCT0; calls only at 9.99 µM; recombinant FGF22 thermal shift, SYPRO orange fluorescence; percent of sucrose octasulfate shift, DMSO zero; actives 1.5% (n = 340,000);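 active = melting point raised past a set limit in the mean and every replicate; inconclusive = no clear call; three in four hits are not shown here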
Target sequence (Q9HCT0 whole entry, looked up): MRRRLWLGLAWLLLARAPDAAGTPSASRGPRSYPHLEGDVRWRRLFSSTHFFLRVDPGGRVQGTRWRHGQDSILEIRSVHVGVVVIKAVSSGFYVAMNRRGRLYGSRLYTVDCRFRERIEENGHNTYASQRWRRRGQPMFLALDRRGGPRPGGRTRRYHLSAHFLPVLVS
UCH37 DUB inh: blocks the human deubiquitinase UCH37; Q9Y5K5; purified proteasome/UCH37, Ub-AMC cleavage fluorescence; inhibition, % (test concentration not listed); actives 0.33% (n = 330,000);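 active = mean of two replicates above 20%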;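 note: 0% = compound-free wells with enzyme and 100% = wells lacking proteasome; stock transfer was 100 nL into about 20 µL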
Target sequence (Q9Y5K5 whole entry, looked up): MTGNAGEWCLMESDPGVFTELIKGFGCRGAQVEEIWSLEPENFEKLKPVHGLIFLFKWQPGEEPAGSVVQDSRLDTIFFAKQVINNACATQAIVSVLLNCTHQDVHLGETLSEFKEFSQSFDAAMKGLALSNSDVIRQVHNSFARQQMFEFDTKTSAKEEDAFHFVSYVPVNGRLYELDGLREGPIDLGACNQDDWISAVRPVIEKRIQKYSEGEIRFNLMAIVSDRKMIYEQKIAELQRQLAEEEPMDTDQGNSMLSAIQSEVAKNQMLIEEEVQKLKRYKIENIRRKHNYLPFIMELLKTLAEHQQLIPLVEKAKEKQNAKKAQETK
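Test system – human UCH37 enzyme supplied as purified proteasome complex · Incubation – 30 min preincubation with enzyme, 25 min cleavage at room temperature · Detection – AMC fluorescence from Ub-AMC cleavage, excitation 355 nm, emission 460 nm · Benchmarks – no-proteasome wells (full inhibition) and compound-free wells (no inhibition)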
AF4-AF9 inh: blocks AF4 peptide binding to human AF9; actives 0.47% (n = 350,000); P42568; inhibition, % at 10 µM; AlphaScreen, biotin-AF4 peptide binding to FLAG-AF9;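 active = every replicate reaching a set inhibition limit, whatever the replicate mean, cut at about 25% in these data; inconclusive = mean inhibition reaches that limit but some replicates miss it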;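 note: 0% = plate neutral control median and 100% = total signal loss; the record names both 10 and 1 µM as test concentration; the first replicate is given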
Target sequence (P42568 whole entry, looked up): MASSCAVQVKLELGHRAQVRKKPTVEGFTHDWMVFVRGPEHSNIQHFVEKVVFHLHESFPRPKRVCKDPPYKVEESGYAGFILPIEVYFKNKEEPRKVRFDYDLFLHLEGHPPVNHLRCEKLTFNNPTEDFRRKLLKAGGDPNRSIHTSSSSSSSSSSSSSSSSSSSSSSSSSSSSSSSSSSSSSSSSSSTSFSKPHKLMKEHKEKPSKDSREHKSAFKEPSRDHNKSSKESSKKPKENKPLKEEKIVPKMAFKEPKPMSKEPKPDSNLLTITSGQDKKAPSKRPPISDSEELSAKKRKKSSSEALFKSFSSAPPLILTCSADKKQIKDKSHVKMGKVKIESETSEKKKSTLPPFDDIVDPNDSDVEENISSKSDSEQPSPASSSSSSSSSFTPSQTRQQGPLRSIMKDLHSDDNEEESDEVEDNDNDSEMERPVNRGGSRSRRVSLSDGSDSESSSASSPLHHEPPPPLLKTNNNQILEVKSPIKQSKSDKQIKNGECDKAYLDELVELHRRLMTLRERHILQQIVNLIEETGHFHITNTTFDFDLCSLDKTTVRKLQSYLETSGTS
rRNA inh HTS: inhibitors of bacterial rRNA selective over humanized ribosomes | AID 720706 | GFP signal change (wild-type ribosome), % (test concentration not listed) | actives 1.6% (n = 350,000) | E. coli WT GFP vs humanized-ribosome RFP mutants, fluorescence, 24 h; active compounds read low; DMSO median 0, no signal -100;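 active = significant combined selectivity score with lowered wild-type GFP, culture density cut under 30%, mutant RFP and density less affected; inactive = any of these conditions unmet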; note: one replicate is shown; some compounds called inactive have numbers as strong as hits
E coli growth: inhibitors of Escherichia coli growth. OD600, 23 h; active compounds read low. OD600 absorbance (test concentration not listed). actives 0.21% (n = 330,000). AID 1053175;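 active = OD600 absorbance below the run mean of sample wells minus 3.6 SD, in any replicate, cut at about 0.56 in these data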;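 note: stock transfer was 300 nL into about 60 µL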
Beta apoptosis: beta cell apoptosis inhibition | INS-1E cytokine-induced death, ATP luminescence, 48 h; percent of positive-control rescue, neutral wells zero | protection from apoptosis, % (no concentration beside the values) | actives 0.8% (n = 300,000) | AID 435005;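 active = all replicates at 75% or more, or half of them and the mean; inconclusive = half reach 75% but not the mean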;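 note: 0% = cytokine-treated negative control wells and 100% = positive control rescue; higher means more ATP so stronger rescue from cytokine killing; wells of about 40 µL received 100 nL stock; the first replicate is given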
A1 inh: inhibitors of the anti-apoptotic protein A1, read as caspase activation; MEF A1-2A-BIM cells, Caspase-Glo 3/7 luminescence, 3 h; percent of clofoctol response, vehicle zero; actives 0.066% (n = 330,000); caspase activation, % (test concentration not listed);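 active = over half of replicate activation scores above 10%, or exactly half above 10 with the replicate mean above 10; inconclusive = replicate mean below 10 yet half the replicates above 10; inactive = over half of replicates below 10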;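 note: wells of about 30 µL received 50 nL stock; many hits fall short of the cut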
rRNA inh HTS OD600: also measured in rRNA inh HTS; calls as there; OD600 change, %; measured here: OD600 growth;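 optical density of the mix in the first replicate; 0 = DMSO median and -100 = no signal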
rRNA inh HTS RFP: second read-out of rRNA inh HTS, no call of its own (marks repeat the call); RFP signal change, %; measured here: RFP humanized mutant strains;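 first replicate; 0 = DMSO median and -100 = no signal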
* hit, by the source's call; i = inactive; u = inconclusive; x = not tested or not shown. A portion of the library; the hit share may differ from the screen's.

SMILES	T cruzi inh	FGF22 binding	UCH37 DUB inh	AF4-AF9 inh	rRNA inh HTS	rRNA inh HTS OD600	rRNA inh HTS RFP	E coli growth	Beta apoptosis	A1 inh
CC(C)(C)NC(=O)NC(=O)CN1CCN(c2cccc(Cl)c2)CC1	-13	i	-0.2	-99	-16	-12	-2.0	0.66	-6	0.0
CCCC(=O)Nc1ccc(NC(=O)c2ccccc2OC)cn1	7	x	0.2	x	x	x	x	0.64	2	1.0
O=C(Nc1ccc2c(c1)OCCO2)c1cnccn1	7	i	3.5	3.4	11	11	0.2	0.58	-3	-3.2
CC(C)C(NC(=O)C(Cc1ccccc1)NC(=O)OCc1ccccc1)C(=O)O (stereo not given)	-6	i	1.3	-2.5	19	21	3.4	0.68	x	0.3
Cc1cc(C)cc(OCC(=O)NCCc2nc3ccccc3[nH]2)c1	25	x	1.3	0.0	-20	-24	-0.6	0.7	-1	-0.3
CS(=O)(=O)Nc1ccc(Cc2ccc(NS(C)(=O)=O)cc2)cc1	-5	x	5.9	x	x	x	x	0.68	2	-0.1
CCc1cc2cc(C)cc(C)c2nc1SCC(=O)NNC(=O)c1ccco1	-1	i	6.2	-0.7	16	8	2.7	0.7	8	-0.4
Cc1nc2ncccn2c1-c1csc(Nc2ccc(N(C)C)cc2)n1	-8	i	3.4	44*	-1	3	12	0.66	x	x
CC(C)(C)c1cc(Cl)ccc1OCCn1ccnc1	u	x	3.8	9.4	-52	-80	-19	0.61	x	0.2
O=C(NCc1ccccn1)c1cc(-c2ccc(-c3ccccc3)cc2)nc2ccccc12	-35	i	-181	-0.4	-10	-7	-1.6	0.76	-4	-2.5
Cc1ccc2c(c1)C(=O)C(=O)N2Cc1ccc(Br)cc1	x	i	1.1	4.8	-25	-42	-9.9	x	4	5.9*
CC1CCCC(NC(=O)CCn2c(=S)oc3ccccc32)C1C (stereo not given)	14	i	1.7	-1.6	7	7	3.1	0.66	-4	0.5
CC(=O)Nc1ccc(S(=O)(=O)NC(C)c2ccccc2)cc1 (stereo not given)	-23	i	1.9	-1.0	3	10	-1.6	0.64	-1	2.6
CCCCCC1C/C(=N\O)C=C(C)C1C(=O)OC (stereo not given)	5	i	x	-1.4	5	8	-3.1	x	1	1.0
C/C=C(\C)C(=O)NCCN1C2=NC[C@H](C)N2C[C@@H]1Cc1ccc(OC)cc1	-2	i	1.1	0.3	8	4	-4.8	x	-10	-0.4
CCOC(=O)C1(Cc2ccc(Cl)cc2)CCN(Cc2cn(CC)nc2C)CC1	31	i	1.8	0.1	9	1	5.6	0.71	-1	0.9
O=C(CN1C(=O)C2C3C=CC(C3)C2C1=O)NCCN1CCCc2ccccc21 (stereo not given)	-6	x	2.2	x	x	x	x	0.73	-7	0.3
CC(C)SC1=NC(C)(C)C=C(/C=C/c2ccc(Cl)cc2Cl)N1	18	x	4.3	x	x	x	x	0.73	-1	-0.4
CSc1cc(C)n(-c2ccccc2C)c(=S)c1C(C)=O	-2	x	5.0	x	x	x	x	0.71	-2	0.1
CC(NC(=O)c1ccc2ccccc2n1)c1ccc(Br)cc1 (stereo not given)	8	i	-1.9	0.9	-11	-39	-3.9	0.7	-7	-0.3
COC(=O)CCn1nnc(-c2ccc(C)cc2)n1	-6	x	2.3	x	x	x	x	0.69	-2	0.6
CCOC(=O)CNC(=O)COc1coc(CN2CCN(c3ccc(F)cc3)CC2)cc1=O	-6	i	1.8	-1.8	6	10	1.1	0.7	x	-0.5
CC(=O)Nc1nc(C)c(CCCOc2ccc([N+](=O)[O-])cc2)c(=O)[nH]1	9	i	2.9	-0.6	-3	-1	2.0	0.65	7	1.4
Cc1[nH]nc2c1C(c1cccs1)C(C#N)=C(N)O2 (stereo not given)	-12	i	2.3	-1.6	3	7	-0.7	0.67	1	-0.1
COc1cc(NC(=O)CN2C(=O)NC(C)(c3ccc(OC(F)F)cc3)C2=O)cc(OC)c1OC (stereo not given)	-12	i	0.8	0.0	-4	-4	0.6	0.69	-7	0.5
O=C(CCC(=O)OCC(=O)c1ccccc1)Nc1cccc2cccnc12	-13	x	3.2	x	x	x	x	0.64	-4	0.6
CCN(CC)Cc1c(O)ccc2c(=O)c(Oc3ccccc3OC)c(C)oc12	-1	i	i	2.3	4	-5	2.9	0.69	1	-0.4
Cc1ccc(OC(=O)c2ccc3nc(C)sc3c2)cc1	-25	i	-1.6	-2.7	16	7	1.6	0.72	-3	0.2
CC(C)(C)C(=O)Cn1c(NCCCO)nc2ccccc21	-5	x	-1.5	x	x	x	x	0.77	-4	0.7
O=C(N/N=C/c1cc([N+](=O)[O-])ccc1N1CCCCCC1)c1ccccn1	1	i	x	12	x	x	x	x	11	-1.1
COc1ccccc1C(=O)NC(CCSC)C(=O)Nc1ccc(C)c(S(=O)(=O)N2CCOCC2)c1 (stereo not given)	x	i	6.7	4.6	-3	-18	5.3	0.69	4	-0.8
CCN(CC(=O)Nc1ccc(NC(C)=O)cc1)C(=O)c1ccc(=O)n(C)n1	x	i	1.4	0.5	x	x	x	0.7	0	-0.3
CC1CCN(S(=O)(=O)c2ccc3c(c2)c(=O)c(C(=O)N2CCCCC2)cn3C)CC1	8	x	2.4	x	x	x	x	0.71	-13	2.5
O=C(CSc1ccc2nnc(CCNC(=O)c3ccccc3)n2n1)NCc1ccco1	4	i	5.7	0.0	10	11	2.2	0.74	x	-0.9
Cc1ccc(NC(=S)N2CCn3cccc3C2c2cccnc2)cc1 (stereo not given)	-5	x	0.3	x	x	x	x	0.67	-3	0.2
Cc1ccc(S(=O)(=O)N2CCC(NC(=O)OC(C)C)CC2)cc1	-14	x	4.5	-1.1	2	7	-6.4	0.7	-6	-1.1
O=[N+]([O-])c1cncc([N+](=O)[O-])c1Nc1ccccc1Cl	16	i	8.6	6.8	-1	1	-1.6	0.65	-10	-0.3
O=C1NC(=Nc2ccccc2)S/C1=C\c1cccs1	1	i	3.7	-0.8	16	12	11	0.65	0	-5.7
OCCN=c1cc(-c2ccccc2)oc2ccc(Cl)cc12	21	x	2.9	x	x	x	x	0.67	25	-0.2
O=C(NC(NC(=S)Nc1cc(Cl)ccc1Cl)C(Cl)(Cl)Cl)c1ccco1 (stereo not given)	-18	i	3.6	-36	-33	-29	-6.4	0.66	0	-0.2
Cn1c(=O)c(=O)n(C)c2cc(S(=O)(=O)CCC(=O)Nc3c(F)c(F)c(F)c(F)c3F)ccc21	41	i	-3.5	1.0	9	12	2.2	0.65	0	0.0
COc1ccc(-c2sc(Nc3ccc(F)c(F)c3F)nc2CCC(=O)NN)cc1	9	i	3.7	1.9	-7	-7	2.4	0.69	-4	0.1
CN(C(=O)CSc1ccc(S(=O)(=O)N2CCCCC2)cn1)c1ccccc1	x	i	0.4	-1.1	x	x	x	0.65	x	x
O=C(COC(=O)CCS(=O)(=O)c1ccccc1)Nc1ccc(N2CCCCC2)cc1	x	i	5.3	-2.8	4	9	-1.1	0.7	-7	0.1
Cc1nn(CC(=O)Nc2ccccn2)c(C)c1Br	-2	x	1.6	x	x	x	x	0.68	-3	u
Cc1nc2c3cnn(-c4ccccc4)c3ncn2n1	-4	x	2.8	x	x	x	x	0.73	-6	-0.5
Cc1ccc(N(CCC(=O)N2CCOCC2)S(=O)(=O)c2ccccc2)cc1	x	i	0.5	0.1	-1	0	5.0	0.7	-3	0.7
CCOc1ccc(OCC)c(NC(=O)CC2Oc3ccccc3NC2=O)c1 (stereo not given)	-3	i	3.0	-6.9	0	-3	1.6	0.75	0	0.1
CCNC(=O)c1c(NC(=O)c2cc(-c3cc(C)cc(C)c3O)n[nH]2)sc2c1CCCC2	x	i	-110	3.0	10	6	1.7	0.77	x	x
O=C(NCc1ccccc1)C1CCCN(C(=O)Nc2ccccc2)C1 (stereo not given)	-2	x	-2.3	x	x	x	x	0.67	4	-0.1

Additional results follow:
SMILES	T cruzi inh	FGF22 binding	UCH37 DUB inh	AF4-AF9 inh	rRNA inh HTS	rRNA inh HTS OD600	rRNA inh HTS RFP	E coli growth	Beta apoptosis	A1 inh
COc1cccc(C(=O)/C=C/Nc2ccc(S(=O)(=O)Nc3onc(C)c3C)cc2)c1	-9	i	5.6	-4.2	10	8	-7.5	0.68	-8	-8.2
O=C(Nc1ccc(Br)cc1)c1ccc2ncsc2c1	4	i	-4.8	2.0	-2	2	0.9	0.67	0	-0.4
Cc1cc(C)c(NC(=O)CSc2nc3ccc(NC(=O)CSc4nnnn4Cc4ccccc4)cc3s2)c(C)c1	20	x	1.5	x	x	x	x	0.76	2	-1.2
N/C(=N\OC(=O)COc1ccc2ccccc2c1)c1cccnc1	6	x	2.4	x	x	x	x	0.63	-6	-0.3
COc1cccc(C2CC(c3cccs3)=NN2S(C)(=O)=O)c1OC (stereo not given)	5	i	7.9	2.6	2	3	0.4	0.72	-2	-0.2
COC(=O)/C=C/C(=O)Nc1cccnc1	-4	x	1.3	x	x	x	x	x	-3	1.2
CCC(=O)Nc1ccc(-c2nnc(-c3ccccc3)o2)cc1	57*	x	-46	x	x	x	x	0.73	5	1.2
O=C(CN(c1ccccc1F)S(=O)(=O)c1ccccc1)Nc1ccccc1C(=O)N1CCOCC1	-1	i	1.0	-5.2	-8	-11	-5.1	0.74	3	0.2
COc1ccc(OC)c(CN2CCC(C(=O)N(C)CCc3ccc(OC)c(OC)c3)CC2)c1	-6	i	0.0	-0.9	6	6	-7.9	0.6	1	-1.3
COc1ccc(Cn2cccc(NC(=O)Nc3cccc(OC)c3)c2=O)cc1	10	i	-5.4	-0.4	-22	-18	21	0.72	3	1.0

Brought forward from above: three compounds; new compounds follow.
SMILES	T cruzi inh	FGF22 binding	UCH37 DUB inh	AF4-AF9 inh	rRNA inh HTS	rRNA inh HTS OD600	rRNA inh HTS RFP	E coli growth	Beta apoptosis	A1 inh
O=C(CN(c1ccccc1F)S(=O)(=O)c1ccccc1)Nc1ccccc1C(=O)N1CCOCC1	-1	i	1.0	-5.2	-8	-11	-5.1	0.74	3	0.2
COc1ccc(OC)c(CN2CCC(C(=O)N(C)CCc3ccc(OC)c(OC)c3)CC2)c1	-6	i	0.0	-0.9	6	6	-7.9	0.6	1	-1.3
COc1ccc(Cn2cccc(NC(=O)Nc3cccc(OC)c3)c2=O)cc1	10	i	-5.4	-0.4	-22	-18	21	0.72	3	1.0
COC(=O)c1ccc(N2CCN(C)CC2)c(NC(=O)c2cc3ccccc3o2)c1	20	x	-136	x	x	x	x	0.66	x	-2.2
CN(C)c1ccc(C(=O)/C=C/c2ccccc2)cc1	-11	i	4.0	-4.2	-21	-19	-6.5	0.67	-1	-2.6
COc1cc(OC)c(NS(=O)(=O)c2ccc(Cl)c(C(=O)OC(C)C(=O)N3CCCC3)c2)cc1Cl (stereo not given)	-2	i	2.3	2.9	-39	-46	20	0.66	2	0.4
CCOC(=O)c1c(C)n(C)c2cc(OCCN(CC)CC)ccc12	-2	x	0.9	x	x	x	x	0.65	7	-0.4
O=C(Cc1ccc(Cl)cc1Cl)Nc1ccncc1	22	i	0.0	-0.2	-25*	-19*	-4.8*	0.66	1	-0.8
